D2 agonist: agonists of human D2 dopamine receptor (beta-arrestin) | P14416 | activation, % (concentration not given with the values) | hit rate 0.084% among 360,000 | DiscoveRx PathHunter D2 beta-arrestin, luminescence, 90 min; 100% = 57 uM dopamine signal; in the data active = activation above about 40%; inconclusive = about 15% to 40%; inactive = below about 15%; further: compound concentration not given in the record; the text of the record calls up to 30% inactive
Target sequence (P14416 whole entry, looked up): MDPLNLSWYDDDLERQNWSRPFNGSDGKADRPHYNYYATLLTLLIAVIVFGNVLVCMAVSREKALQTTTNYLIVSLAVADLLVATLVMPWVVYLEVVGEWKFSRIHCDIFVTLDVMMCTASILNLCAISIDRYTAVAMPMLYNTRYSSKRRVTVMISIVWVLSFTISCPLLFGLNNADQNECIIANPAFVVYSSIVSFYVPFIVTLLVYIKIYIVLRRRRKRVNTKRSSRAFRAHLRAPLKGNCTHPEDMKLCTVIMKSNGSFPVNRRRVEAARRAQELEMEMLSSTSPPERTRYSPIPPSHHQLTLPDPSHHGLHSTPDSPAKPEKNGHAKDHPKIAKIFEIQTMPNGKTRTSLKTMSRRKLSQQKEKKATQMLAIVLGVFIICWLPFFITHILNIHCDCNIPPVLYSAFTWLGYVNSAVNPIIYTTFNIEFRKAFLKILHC
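Agonist mode: compounds alone added to overnight-plated D2 PathHunter cells for 90 min at 37 C, with 57 uM final dopamine (EC100) defining full response. Beta-arrestin recruitment detected by chemiluminescent reagent, read after 1 h at ambient temperature.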
TRPML1 agonist: activates the human TRPML1 channel; Q9GZU1; TRPML1-expressing cells, Ca2+ dye fluorescence, FDSS; host cell line not named in the record; reference of the full effect not given here; activation, % (no concentration beside the values); hit rate 0.12% among 410,000; AID 624414; in the data active = activation above about 50%; inconclusive = about 30% to 50%; inactive = below about 30%; further: 0% is about no effect; the text of the record puts the active cut at 80%
Target sequence (Q9GZU1 whole entry, looked up): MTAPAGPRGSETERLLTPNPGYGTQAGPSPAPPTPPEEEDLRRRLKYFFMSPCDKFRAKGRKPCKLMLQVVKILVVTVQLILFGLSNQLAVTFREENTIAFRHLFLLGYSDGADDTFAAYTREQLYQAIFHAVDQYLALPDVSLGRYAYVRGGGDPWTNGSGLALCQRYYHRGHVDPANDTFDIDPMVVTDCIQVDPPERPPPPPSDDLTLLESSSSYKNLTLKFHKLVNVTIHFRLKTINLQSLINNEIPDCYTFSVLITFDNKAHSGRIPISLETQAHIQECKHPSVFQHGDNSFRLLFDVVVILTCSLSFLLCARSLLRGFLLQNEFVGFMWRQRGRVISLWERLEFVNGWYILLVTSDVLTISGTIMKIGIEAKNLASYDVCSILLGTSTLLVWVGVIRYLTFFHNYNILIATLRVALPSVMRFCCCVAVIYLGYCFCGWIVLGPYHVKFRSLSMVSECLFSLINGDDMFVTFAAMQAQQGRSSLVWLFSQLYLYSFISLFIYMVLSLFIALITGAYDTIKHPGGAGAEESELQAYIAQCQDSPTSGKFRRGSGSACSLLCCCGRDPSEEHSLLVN
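Kinetic FDSS Ca2+ read in Tet-induced TRPML1-DL cells (ABD Ca8 dye plus quencher, 45-90 min RT loading): baseline, then compound, then 110 s agonist window; EC80 agonist 54-4 at 4uM final added afterwards for a 110 s antagonist window.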
Six1-Eya2 blk: blocks human Six1 binding to Eya2; AlphaScreen GST-Six1/His-Eya2 binding, biochemical; active compounds read low; control for the full effect not named in the record; hit rate 0.56% among 360,000; activity change, % (concentration not given with the values); Q15475+O00167; AID 651725; in the data active = activity change below about -65%; inconclusive = about -30% to -65%; inactive = above about -30%; further: on the % scale 0 is the no-effect control and ±100 the full control effect
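Homogeneous AlphaScreen proximity assay pairing GST-Six1 with His-tagged Eya2 (added as 5X mix: 250 nM and 500 nM) in 50 mM Tris pH 8.0, 300 mM NaCl, 1 mM TCEP. Glutathione donor and nickel acceptor beads; 1 h, 37 °C, dark.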
PINK1 modulator: PINK1 expression modulation. Potency, µM (top dose mostly 76.6 µM), inactives show at the top dose activation (PINK1 increase), usual class: activators. hit rate 0.2% among 410,000. PINK1 immunofluorescence, high-content cytometry, 24 h. AID 624263; active = well fitted activation curve with a large enough effect; inconclusive = small, poorly fitted or top-dose-only effect; inactive = flat fitted curve, though single readings scatter; cell line not stated here;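 further: potency means the concentration at half of the fitted maximal effect; % of control where 0% means no effect; nearly all actives have a fitted effect of over 65% in size; a mitochondrial uncoupler was the plate control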
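Measures PINK1 amount and localization on or inside mitochondria by immunofluorescence. Stable cells get compounds at 5 concentrations for 24 hours before fixation and staining; CCCP controls included.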
TRPML1 blocker: inhibitors of human TRPML1 channel; activity change, negative = inhibition, % (test concentration not listed); TRPML1-inducible cells, Ca2+ dye fluorescence, FDSS; active compounds read low; inhibition of EC80 agonist-evoked calcium signal; AID 624415; hit rate 0.02% among 390,000; in the data active means activity change below about -50%; inconclusive means about -30% to -50%; inactive means above about -30%;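 further: stimulus is agonist 54-4 at its EC80 concentration; on the % scale 0 is the no-effect control and ±100 the full control effect; compound concentration not given in the record; the text of the record puts the active cut at -80%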
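Tet-induced TRPML1-DL cells loaded with Ca8 no-wash calcium dye were read kinetically on FDSS. Compound addition was followed by EC80 agonist 54-4 (4 uM final); inhibition was read over 110 s.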
D2 potentiator: positive allosteric modulators of human D2 dopamine receptor. potentiation, % (concentration not given with the values). P14416. hit rate 0.23% among 360,000. DiscoveRx D2 beta-arrestin cells, luminescence, 90 min; 100% = 57 uM dopamine signal; active = potentiation of 50% or more; inconclusive = 30% to 50%; inactive = 30% or less;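 further: compound concentration not given in the record; tested on top of an EC20 dose of dopamine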
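PathHunter D2 cells, attached overnight at 37 deg C, received compound in DMSO plus dopamine at EC20 (50 nM final) for 90 min at 37 deg C. Beta-arrestin recruitment was read as luminescence after 1 h with detection reagent at ambient temperature.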
Starred values were filed as active, the others as inactive; [ ] = dose if it differs, or a comment.

Results for O=C(Nc1cccc(Cl)c1)C1CCCN(S(=O)(=O)c2ccc(F)cc2)C1 (configuration not stated) ?
D2 agonist: 4.4; TRPML1 agonist: 3.7; Six1-Eya2 blk: 5; PINK1 modulator: -3.5%[38.3 µM]; TRPML1 blocker: 2; D2 potentiator: -4

Results for CCOC(=O)c1c(-c2cccc([N+](=O)[O-])c2)csc1NC(=O)C1CC1 ?
D2 agonist: 11; TRPML1 agonist: 2.8; Six1-Eya2 blk: inconclusive; PINK1 modulator: 21%[38.3 µM]; TRPML1 blocker: -6; D2 potentiator: 55*

Results for O=C(/C=C/c1cc2c(cc1Br)OCO2)NCc1ccc(Cl)cc1 ?
D2 agonist: 4.8; TRPML1 agonist: 0.3; Six1-Eya2 blk: -6; PINK1 modulator: 11%; TRPML1 blocker: 0; D2 potentiator: 1

What do the screens show for `Cc1cc(C)cc(OCC(=O)NNC(=O)c2cc3ccccc3oc2=O)c1`?
D2 agonist: -3.0; TRPML1 agonist: -0.4; Six1-Eya2 blk: 7; PINK1 modulator: 7.5%; TRPML1 blocker: 9; D2 potentiator: -3

How did O=C(CN(CCc1ccccc1)C(=O)Cn1nnc(-c2cccs2)n1)NCc1ccco1 do in these assays?
D2 agonist: -1.0; TRPML1 agonist: -0.1; Six1-Eya2 blk: -1; PINK1 modulator: 2.1%[38.3 µM]; TRPML1 blocker: -9; D2 potentiator: -25

What do the screens show for `COc1cccc(NC(=O)CCS(=O)(=O)c2cccs2)c1`?
D2 agonist: -2.7; TRPML1 agonist: -0.4; Six1-Eya2 blk: -3; PINK1 modulator: -3.3%; TRPML1 blocker: -7; D2 potentiator: 0

What do the screens show for `Cc1ccc(C)c(N2CCN(C(=O)CS(=O)(=O)c3cccc4nsnc34)CC2)c1`?
TRPML1 agonist: 3.2; PINK1 modulator: -3.7%; TRPML1 blocker: -9

What do the screens show for `CC(C)Cn1c(N)c(C(=O)COC(=O)[C@@H]2CCCN2C(=O)c2cccs2)c(=O)n(C)c1=O`?
D2 agonist: 3.1; TRPML1 agonist: -0.2; Six1-Eya2 blk: -1; PINK1 modulator: -1.7%; TRPML1 blocker: 11; D2 potentiator: 3

What do the screens show for `CCOc1ccc(CCNC(=O)CSCc2ccc(C)cc2)cc1OCC`?
D2 agonist: -0.3; TRPML1 agonist: 2.1; Six1-Eya2 blk: 3; PINK1 modulator: -0.7%; TRPML1 blocker: -9; D2 potentiator: 1

What do the screens show for `COc1ccc(-n2c(-c3ccc(C)cc3)cc3c2CC(C)(C)CC3=O)cc1Cl`?
TRPML1 agonist: 2.3; PINK1 modulator: 0.1%; TRPML1 blocker: 71

Results for COc1ccc(NS(=O)(=O)c2ccc(NC(=O)Cc3cccs3)cc2)cc1 ?
D2 agonist: 5.1; TRPML1 agonist: 3.9; Six1-Eya2 blk: 2; PINK1 modulator: 2.6%; TRPML1 blocker: -24; D2 potentiator: 12

How did Cc1cc(C)cc(-n2ccnc2SCC(=O)Nc2nc3ccc(C)cc3s2)c1 do in these assays?
TRPML1 agonist: 0.2; PINK1 modulator: -5.0%; TRPML1 blocker: -2

How did CC(=O)C[C@@H](O)CC(=O)[C@@H]1OC(=O)CCCCCCCc2ccccc21 do in these assays?
D2 agonist: -3.1; TRPML1 agonist: 0.2; Six1-Eya2 blk: 9; PINK1 modulator: 0.4%; TRPML1 blocker: -1; D2 potentiator: -4

How did CCc1ccc(N(CC(=O)NC(C)C)C(=O)CCC(=O)Nc2ccccn2)cc1 do in these assays?
D2 agonist: -0.6; TRPML1 agonist: 0.1; Six1-Eya2 blk: 7; PINK1 modulator: -0.4%; TRPML1 blocker: -6; D2 potentiator: -10

How did O=c1oc2c(-c3cccc(F)c3)cc(O)cc2s1 do in these assays?
D2 agonist: inconclusive; TRPML1 agonist: -0.2; Six1-Eya2 blk: -8; PINK1 modulator: -0.2%; TRPML1 blocker: 1; D2 potentiator: 4

Results for C=CCS(=O)(=O)N1CCCC(C(=O)c2cccc(Cl)c2)C1 (configuration not stated) ?
D2 agonist: -3.8; TRPML1 agonist: -0.3; Six1-Eya2 blk: 0; PINK1 modulator: 1.3%; TRPML1 blocker: 21; D2 potentiator: -17

What do the screens show for `CC1(C)Cc2c(sc3nnn(Cc4ccc(Cl)cc4)c(=O)c23)CO1`?
D2 agonist: 0.9; TRPML1 agonist: 0.5; Six1-Eya2 blk: 0; PINK1 modulator: 0.0%; TRPML1 blocker: -2; D2 potentiator: 17

What do the screens show for `O=C(CSCc1ccc(C(=O)O)cc1)Nc1ccccc1`?
D2 agonist: 2.0; TRPML1 agonist: 0.6; Six1-Eya2 blk: 5; PINK1 modulator: 3.1%; TRPML1 blocker: -14; D2 potentiator: -7

Results for Cn1c(N)c(C(=O)COC(=O)CNC(=O)c2ccccc2F)c(=O)n(C)c1=O ?
D2 agonist: -2.7; TRPML1 agonist: -0.3; Six1-Eya2 blk: 6; PINK1 modulator: 1.9%; TRPML1 blocker: -6; D2 potentiator: -25

Results for CCc1nnc(NC(=O)c2nn(-c3ccccc3)nc2C)s1 ?
D2 agonist: -2.4; TRPML1 agonist: -0.3; Six1-Eya2 blk: 2; PINK1 modulator: 1.9%; TRPML1 blocker: -8; D2 potentiator: -16

Overlap with the part before: two compounds; new compounds follow.
Results for Cn1c(N)c(C(=O)COC(=O)CNC(=O)c2ccccc2F)c(=O)n(C)c1=O ?
D2 agonist: -2.7; TRPML1 agonist: -0.3; Six1-Eya2 blk: 6; PINK1 modulator: 1.9%; TRPML1 blocker: -6; D2 potentiator: -25

Results for CCc1nnc(NC(=O)c2nn(-c3ccccc3)nc2C)s1 ?
D2 agonist: -2.4; TRPML1 agonist: -0.3; Six1-Eya2 blk: 2; PINK1 modulator: 1.9%; TRPML1 blocker: -8; D2 potentiator: -16

How did COc1ccc(C)cc1S(=O)(=O)Nc1ccccc1 do in these assays?
D2 agonist: 1.5; TRPML1 agonist: 0.4; Six1-Eya2 blk: 6; PINK1 modulator: 3.0%[38.3 µM]; TRPML1 blocker: 3; D2 potentiator: -6

How did COc1ccc(COc2cc(-c3cccc(OC)c3)nc3ccc(NC(=O)c4ccc(Cl)cc4)cc23)cc1 do in these assays?
D2 agonist: -2.1; TRPML1 agonist: 0.1; Six1-Eya2 blk: 0; PINK1 modulator: 17%; TRPML1 blocker: 7; D2 potentiator: -27

How did CCn1c(SCC(=O)Nc2ccc(NC(C)=O)cc2)nc2c1c(=O)n(C)c(=O)n2C do in these assays?
D2 agonist: -1.0; TRPML1 agonist: -0.5; Six1-Eya2 blk: 0; PINK1 modulator: 0.7%; TRPML1 blocker: 6; D2 potentiator: -8

What do the screens show for `Cc1ccc(Nc2nc3ccccc3n3cnnc23)cc1Cl`?
D2 agonist: -2.8; TRPML1 agonist: -0.8; Six1-Eya2 blk: 1; PINK1 modulator: 6.1%; TRPML1 blocker: -20; D2 potentiator: -4

What do the screens show for `O=S(=O)(NCc1nc2cccnc2n1Cc1ccc(F)cc1)c1ccc(Cl)s1`?
TRPML1 agonist: 0.8; PINK1 modulator: 1.3%; TRPML1 blocker: 21

Results for O=C(COc1ccc(Cl)cc1)Nc1ccc2[nH]ncc2c1 ?
D2 agonist: -1.3; TRPML1 agonist: -0.4; Six1-Eya2 blk: -7; PINK1 modulator: 2.9%; TRPML1 blocker: -12; D2 potentiator: -9

Results for COc1cc(-c2coc3c(C(=O)NCc4ccccc4)cccc23)ccc1O ?
D2 agonist: 11; TRPML1 agonist: -1.0; Six1-Eya2 blk: -25; PINK1 modulator: 5.0%; D2 potentiator: 3

What do the screens show for `O=[N+]([O-])c1ccc(N2CCN(CC3CCCCC3)CC2)cc1`?
D2 agonist: -5.1; TRPML1 agonist: 0.7; Six1-Eya2 blk: 0; PINK1 modulator: -0.2%; TRPML1 blocker: 28; D2 potentiator: -60

What do the screens show for `COc1cc(C)ccc1OCCSc1nc2ccc(NC(=O)c3cccs3)cc2s1`?
TRPML1 agonist: -0.6; PINK1 modulator: -1.3%; TRPML1 blocker: -9

How did CC(C)Oc1ccc(C(CC(=O)O)NC(=O)Cc2ccc(Cl)cc2)cc1 (configuration not stated) do in these assays?
D2 agonist: 0.7; TRPML1 agonist: -1.5; Six1-Eya2 blk: 2; PINK1 modulator: 1.3%; TRPML1 blocker: -11; D2 potentiator: -6

What do the screens show for `Cc1cc(N(C)C)ccc1N=Nc1ccc2ncccc2c1`?
D2 agonist: -8.7; TRPML1 agonist: 1.2; Six1-Eya2 blk: -83*; PINK1 modulator: 0.5%; TRPML1 blocker: 14; D2 potentiator: -38

What do the screens show for `CC(C)(C)C(=O)Nc1ccc(S(=O)(=O)NC2=NCCCCC2)cc1`?
D2 agonist: -6.3; TRPML1 agonist: -0.2; Six1-Eya2 blk: 14; PINK1 modulator: -1.4%; TRPML1 blocker: 0; D2 potentiator: -4

How did COc1ccc(OC)c(S(=O)(=O)N2CCCCC2C(=O)N2CCN(c3ccccn3)CC2)c1 (configuration not stated) do in these assays?
D2 agonist: -2.6; TRPML1 agonist: 1.6; Six1-Eya2 blk: -5; PINK1 modulator: 0.7%; TRPML1 blocker: 16; D2 potentiator: -3

How did COc1ccccc1NC(=S)N1CCC(NC(=O)C23CC4CC(CC(C4)C2)C3)CC1 do in these assays?
D2 agonist: -3.2; TRPML1 agonist: 1.6; Six1-Eya2 blk: 8; PINK1 modulator: -0.7%; TRPML1 blocker: 20; D2 potentiator: -38

Results for COc1ccc(OC)c(C2NC(=S)NC(C)=C2C(=O)Nc2ccccn2)c1 (configuration not stated) ?
D2 agonist: -8.4; TRPML1 agonist: 0.1; Six1-Eya2 blk: 4; PINK1 modulator: 0.2%; TRPML1 blocker: -16; D2 potentiator: 5

Results for C/C(=N\NC(N)=O)C1CC(CC(C)C)C(=O)O1 (configuration not stated) ?
D2 agonist: -0.2; TRPML1 agonist: -0.3; Six1-Eya2 blk: 15; PINK1 modulator: -0.6%; TRPML1 blocker: 19; D2 potentiator: 2

Results for Cc1cc(C)n(CCC(=O)N/N=C/c2ccccc2O)n1 ?
D2 agonist: 1.1; TRPML1 agonist: -0.3; Six1-Eya2 blk: inconclusive; PINK1 modulator: 0.0%; TRPML1 blocker: -5; D2 potentiator: 4

What do the screens show for `COc1cccc(/C=C/C(=O)OCC(=O)Nc2cc(S(=O)(=O)N3CCOCC3)ccc2C)c1`?
D2 agonist: -0.1; TRPML1 agonist: 0.6; Six1-Eya2 blk: -9; PINK1 modulator: -0.4%; TRPML1 blocker: 16; D2 potentiator: 2

What do the screens show for `Cc1ccccc1OCC(O)Cn1c(=N)n(Cc2ccccc2)c2ccccc21` (configuration not stated)?
D2 agonist: -13; TRPML1 agonist: 1.0; Six1-Eya2 blk: 7; PINK1 modulator: -2.9%; TRPML1 blocker: 0; D2 potentiator: -6

What do the screens show for `CCN(CC)c1ccc([N+](=O)[O-])cc1/C=N/NC(=O)CC#N`?
D2 agonist: -3.5; TRPML1 agonist: -0.3; Six1-Eya2 blk: -2; PINK1 modulator: -0.9%; TRPML1 blocker: 15; D2 potentiator: -24

Results for COc1ccccc1N1CCN(Cc2nc(N)nc(Nc3ccc(C)cc3)n2)CC1 ?
D2 agonist: 1.2; TRPML1 agonist: 2.7; Six1-Eya2 blk: -2; PINK1 modulator: 0.4%; TRPML1 blocker: 2; D2 potentiator: -42

High-throughput results as filed in PubChem.

An unsorted share of the library. Share with any hit: about 1%.
